From PubChem
INS promoter inh = TRM-6 insulin promoter activity inhibition. inhibition, % at 2 µM. AID 1273. TRM-6 cells (human fetal islet line), insulin promoter-eGFP reporter, imaging; reporter expression induced with tamoxifen. hit rate 0.9% among 130,000;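 active means inhibition above the mean plus 3 SD, with well images judged a real hit on visual review, cut at about 60% in these data, passing the limit was not always enough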
RGS16-Gao = regulators of human RGS16-Galphao interaction; O15492+P09471; bead-based flow cytometry RGS16-Galphao binding, fluorescence; actives lie on both sides; binding response (% of control), % at 10 µM; hit rate 0.38% among 220,000; AID 1441;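 active means below 25% or above 175%, edge rows of some plates excepted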;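 further: Galphao activated by GDP with aluminum fluoride before binding; 100% = wells without compound and 0% = beads without RGS; some results beyond the cut were filed as inactive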
Target sequence (O15492 whole entry, looked up): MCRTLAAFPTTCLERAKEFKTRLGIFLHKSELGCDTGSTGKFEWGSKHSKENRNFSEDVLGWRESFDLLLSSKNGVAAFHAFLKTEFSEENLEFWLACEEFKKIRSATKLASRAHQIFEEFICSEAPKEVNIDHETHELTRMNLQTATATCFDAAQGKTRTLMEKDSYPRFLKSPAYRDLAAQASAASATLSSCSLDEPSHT
Target sequence (P09471 whole entry, looked up): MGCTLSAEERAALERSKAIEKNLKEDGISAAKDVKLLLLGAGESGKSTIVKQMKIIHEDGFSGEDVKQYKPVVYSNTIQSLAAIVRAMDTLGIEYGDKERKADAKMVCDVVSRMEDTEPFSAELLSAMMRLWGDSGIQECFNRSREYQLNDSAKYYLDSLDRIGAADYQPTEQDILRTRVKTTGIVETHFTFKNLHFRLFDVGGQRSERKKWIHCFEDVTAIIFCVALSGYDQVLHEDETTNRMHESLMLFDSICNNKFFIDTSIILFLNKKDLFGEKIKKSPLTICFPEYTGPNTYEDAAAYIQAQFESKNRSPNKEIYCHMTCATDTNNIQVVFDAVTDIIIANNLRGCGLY
GALR2 agonist = activates the human galanin receptor 2; hit rate 0.48% among 140,000; AID 803; GALR2-expressing cells, agonist activation read-out; activation, %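 (tested at 5 µM)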; O43603;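 active means above mean plus 3 SD of all compounds, about 5% in these data, not always enough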;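 further: 0% = vehicle buffer wells and 100% = reference agonist at full effect; tested in CHO reporter cells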
Target sequence (O43603 whole entry, looked up): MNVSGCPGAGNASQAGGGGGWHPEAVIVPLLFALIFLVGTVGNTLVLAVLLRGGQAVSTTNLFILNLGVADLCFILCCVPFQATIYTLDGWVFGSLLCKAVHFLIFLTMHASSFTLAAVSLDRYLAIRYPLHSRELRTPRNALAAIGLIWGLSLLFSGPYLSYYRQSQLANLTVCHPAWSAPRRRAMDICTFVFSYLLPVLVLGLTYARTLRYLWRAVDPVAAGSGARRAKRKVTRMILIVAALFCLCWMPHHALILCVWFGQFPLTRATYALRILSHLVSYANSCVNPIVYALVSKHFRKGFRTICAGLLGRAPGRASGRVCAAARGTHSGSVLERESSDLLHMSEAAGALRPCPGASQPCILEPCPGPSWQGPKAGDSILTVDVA
PKD1 inh = inhibitors of human PKD1 kinase | Q15139 | PKD1 kinase fluorescence polarization assay | AID 797 | hit rate 0.056% among 200,000 | inhibition, %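 (about 10 µM by stock and volumes)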;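 active means inhibition of 50% or more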;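 further: controls were vehicle for no effect and a reference inhibitor for full effect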
HSV augment = increases HSV replication in cells. HSV replication augmentation in cells, fold increase. maximum fold increase. hit rate 0.005% among 220,000. AID 1956;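 active means peak rise of 1.5-fold or more in the series; tested in PC3 cells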;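 further: first round at 10 µM; read as green reporter fluorescence; hits show the peak of a series up to 25 µM; 1 = signal of infected wells without compound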
INS promoter inh cell count = also measured in INS promoter inh; calls as there; normalized cell count, %; measured here: cell count, toxicity; reference of the scale not given here;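 cells exposed to compound for 48 h; stained nuclei by imaging scaled within each plate; lower means fewer cells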
HSV augment primary fold = second read-out of HSV augment, no call of its own (marks repeat the call); fold increase; compound at 10 µM; measured here: primary screen fold increase 10 uM; tested in PC3 cells;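 GFP signal in the first replicate; 1 = infected wells without compound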
An asterisk follows results filed as active; i = inactive; · = no result given.

Screens in order – INS promoter inh, INS promoter inh cell count, RGS16-Gao, GALR2 agonist, PKD1 inh, HSV augment, HSV augment primary fold
- CC(=O)C1C(c2ccncc2)NC(=O)NC1(O)C(F)(F)F (centres undefined)
→ -176, 85, 103, -2.2, -5, i, 0.98
- O=[N+]([O-])C(/C=C(\Cl)[N+](=O)[O-])=C(N1CCCCC1)N1CCCCC1
→ ·, ·, 97, ·, 0, i, 0.84
- COc1ccc(NC(=O)CNS(=O)(=O)c2cccs2)c(OC)c1
→ 8, 132, 100, -1.2, -11, i, 0.96
- CCc1cc2c(=O)n(Cc3ccccc3)c(SC3CCOC3=O)nc2s1 (centres undefined)
→ ·, ·, 100, ·, 3, i, 0.85
- Cc1ccc(SCC(=O)NCc2ccc(F)cc2)cc1
→ -17, 57, 97, ·, 8, i, 1.1
- CN(C)S(=O)(=O)c1cccc(NC(=O)CSc2nncn2-c2ccccc2)c1
→ 50, 138, 96, ·, 2, i, 1.1
- COC(=O)c1cn(CC(=O)NC2CCCCC2)c2ccccc12
→ 30, 114, 79, 0.2, -8, i, 1
- CCN(CC)S(=O)(=O)c1cccc(NC(=O)COC(=O)/C=C/c2cccs2)c1
→ ·, ·, 93, ·, ·, i, 0.74
- CCCc1nc(SC)[nH]c(=O)c1C
→ ·, ·, 103, ·, ·, i, 0.96
- COc1cccc(C2=NN(C(=O)c3ccc(C)o3)C(O)(C(F)(F)F)C2)c1 (centres undefined)
→ 0, 108, 93, ·, 4, i, 0.9
- CCn1nnnc1-c1ccc(OC)c(S(=O)(=O)Nc2ccc(C)c(C)c2)c1
→ -34, 99, 101, 0.4, 1, ·, ·
- Cc1nnc(SCc2cc(=O)[nH]c(=S)[nH]2)s1
→ ·, ·, 115, ·, 0, i, 0.7
- CCn1c(SCC(=O)NC2CCCc3ccccc32)nnc1-c1cccs1 (centres undefined)
→ 28, 100, 106, -1.6, -6, i, 0.92
- COc1ccc(-c2cc(C(=O)OCC(=O)NC(C)(C)C)c3ccccc3n2)cc1
→ 45, 212, 106, ·, -7, i, 0.87
- Cc1ccc2c(c1)C(O)(CC(=O)c1cccnc1)C(=O)N2 (centres undefined)
→ -272, 18, 116, -1.2, -7, i, 1
- CN(C(=O)c1ccc(NC(=O)C2CC=CCC2C(=O)O)cc1)c1ccccc1 (centres undefined)
→ -350, 60, 99, -0.9, 25, i, 0.67
- CCOCCn1c(N2CCN(c3ccc(OC)cc3)CC2)nc2c1c(=O)n(C)c(=O)n2C
→ 10, 104, 101, 0.1, 4, i, 1
- O=C(CC1(O)C(=O)Nc2cc(Cl)cc(Cl)c21)c1ccccc1O (centres undefined)
→ -25, 92, 97, -0.3, -8, i, 0.99
- CCOC(=O)/C=C1\SCC(=O)N1CC(=O)NC(c1ccccc1)c1ccccc1
→ -48, 77, 111, -0.1, 0, i, 0.95
- COc1ccc(N2CCC(CNC(=S)Nc3cccc(OC)c3)C2)cc1 (centres undefined)
→ -25, 113, 100, -1.4, 8, i, 1

A second format for part of the listing above:
| mol | INS promoter inh | INS promoter inh cell count | RGS16-Gao | GALR2 agonist | PKD1 inh | HSV augment | HSV augment primary fold |
| --- | --- | --- | --- | --- | --- | --- | --- |
| Cc1nnc(SCc2cc(=O)[nH]c(=S)[nH]2)s1 | · | · | 115 | · | 0 | i | 0.7 |
| CCn1c(SCC(=O)NC2CCCc3ccccc32)nnc1-c1cccs1 (centres undefined) | 28 | 100 | 106 | -1.6 | -6 | i | 0.92 |
| COc1ccc(-c2cc(C(=O)OCC(=O)NC(C)(C)C)c3ccccc3n2)cc1 | 45 | 212 | 106 | · | -7 | i | 0.87 |
| Cc1ccc2c(c1)C(O)(CC(=O)c1cccnc1)C(=O)N2 (centres undefined) | -272 | 18 | 116 | -1.2 | -7 | i | 1 |

New compounds follow
Screens in order – INS promoter inh, INS promoter inh cell count, RGS16-Gao, GALR2 agonist, PKD1 inh, HSV augment, HSV augment primary fold
- COC(=O)c1ccc(-c2ccc(CNCC(O)c3ccccc3)o2)cc1 (centres undefined)
→ ·, ·, 111, -0.6, 3, i, 0.85
- Cn1cccc1C(=O)NC(=O)COC(=O)c1ccc(O)cc1
→ 4, 109, 107, -1.2, -3, i, 0.88
- O=C(Cc1ccccc1)Nc1cc([N+](=O)[O-])ccc1N1CCOCC1
→ ·, ·, 98, ·, -6, i, 0.78
- CCn1c(NC(=O)c2nn(C)cc2Br)nc2ccccc21
→ -50, 104, 108, 0.5, -1, i, 0.97
- COc1ccc(C/C(C)=N/NC(=O)C2COc3ccccc3O2)cc1 (centres undefined)
→ -25, 152, 102, ·, -8, i, 0.77
- Cc1ccccc1-n1nnnc1Sc1nnnn1-c1ccccc1
→ 22, 79, 96, -2.9, 0, i, 0.85
- COc1ccc(-c2nn(-c3ccccc3)cc2/C=C/C(=O)OCC(=O)Nc2cccc(C#N)c2)cc1
→ -32, 99, 106, -0.9, -13, i, 0.96
- CCOc1ccccc1-n1nnnc1SCc1nc2ccccc2s1
→ ·, ·, 103, -1.1, 1, ·, ·
- O=C(O)Cc1sc(-c2cccnc2)nc1-c1ccc(Br)cc1
→ -24, 60, 101, ·, 4, i, 1.1
- CCN(CC)c1ccc(NC(=O)Cn2cc3c(n2)CCC(C)C3)c(C)c1 (centres undefined)
→ ·, ·, 106, -1.4, -4, i, 0.88
- COCCCNc1ccc([N+](=O)[O-])cc1C(=O)Nc1cccc(C)n1
→ ·, ·, 97, ·, 0, i, 0.98
- O=c1c2ccccc2nc(SCc2ccccc2)n1CC1CCCO1 (centres undefined)
→ ·, ·, 110, ·, ·, i, 1.2
- O=C(CSc1nnc2ccc3ccccc3n12)N1CCOCC1
→ ·, ·, 92, -1.6, -2, i, 0.96
- O=S1(=O)CC2SC(=S)N(c3ccccc3)C2C1 (centres undefined)
→ ·, ·, 97, ·, ·, i, 0.81
- COC(=O)c1cccc(CSc2nc3ccccc3[nH]2)c1
→ -37, 109, 54, 0.1, 1, i, 0.92
- O=C(NCCc1c[nH]c2ccccc12)C1CCN(c2nnc(N3CCCC3=O)s2)CC1
→ 9, 78, 86, -1.6, -4, i, 1
- Cc1ccc(NC(=O)CCn2nnc3ccccc32)cc1
→ ·, ·, 104, ·, -4, i, 0.94
- O=C(Sc1nnc(-c2ccccc2)o1)N1c2ccccc2Sc2ccccc21
→ 49, 163, 115, -1.7, -7, i, 0.83
- COc1ccc(C(=O)c2coc(-c3ccccc3C(=O)O)c2C(=O)O)cc1
→ -47, 110, 106, -0.7, -2, i, 0.81
- Cn1c(CC(=O)Nc2ccc(Cl)c(Cl)c2)n[nH]c1=S
→ -118, 85, 104, ·, -2, i, 1.1

An excerpt of these results, as labelled records:
COC(=O)c1cccc(CSc2nc3ccccc3[nH]2)c1
  INS promoter inh: -37; INS promoter inh cell count: 109; RGS16-Gao: 54; GALR2 agonist: 0.1; PKD1 inh: 1; HSV augment: i; HSV augment primary fold: 0.92
O=C(NCCc1c[nH]c2ccccc12)C1CCN(c2nnc(N3CCCC3=O)s2)CC1
  INS promoter inh: 9; INS promoter inh cell count: 78; RGS16-Gao: 86; GALR2 agonist: -1.6; PKD1 inh: -4; HSV augment: i; HSV augment primary fold: 1

New compounds follow
Screens in order – INS promoter inh, INS promoter inh cell count, RGS16-Gao, GALR2 agonist, PKD1 inh, HSV augment, HSV augment primary fold
- COc1ccccc1N1CCN(c2nc3ccccn3c(=O)c2C=O)CC1
→ 17, 121, 101, -0.7, -7, i, 0.97
- CC(C)(C)S(=O)(=O)c1cnc(N2CCCC2)nc1N
→ ·, ·, 94, ·, ·, i, 0.97
- CCOC(=O)c1nnc(-c2ccc(C)cc2)nc1N1CCSCC1
→ ·, ·, 105, ·, 1, i, 0.93
- CCOc1ccc(CNC23CN4CN(CN(C4)C2)C3)cc1
→ ·, ·, 128, -2.6, -4, i, 0.82
- Cc1c(Br)cc(C(=O)NCCCN2CCOCC2)c(C)c1C
→ -20, 91, 102, -3.1, -3, i, 1
- Cc1cccc(N(CC(=O)N2CCN(C)CC2)S(=O)(=O)c2ccccc2)c1
→ -22, 73, 100, ·, 3, i, 1.1
- Cc1ccccc1NC1=C(Cl)C(=O)OC1NC(=O)c1ccccc1 (centres undefined)
→ 10, 49, 104, -1.5, -4, i, 0.88
- O=C(CSc1nccn1-c1ccc(F)cc1)NCc1ccc(F)cc1
→ ·, ·, 105, ·, -11, i, 0.92
- CCCCn1c(C(C)NC(=O)CCC)nc2ccccc21 (centres undefined)
→ ·, ·, 109, -2.6, 3, i, 0.9
- COc1ccc(/C=C/C(=O)O)cc1S(=O)(=O)N1CCc2ccccc2C1
→ ·, ·, 102, ·, -2, i, 0.9
- CSc1cccc(NC(=S)Nc2cc(C)ccc2C)c1
→ ·, ·, 101, ·, ·, i, 0.94
- O=C(O)/C=C/C(=O)NC1CCS(=O)(=O)C1 (centres undefined)
→ -11, 143, 105, 0.0, -7, i, 1
- CCOC(=O)NN1C(=O)c2ccccc2NC1c1cccnc1 (centres undefined)
→ 15, 129, 100, ·, -3, i, 0.96
- COC(=O)c1cn(NC(=O)c2cccc(F)c2)c(=O)c2ccccc12
→ 6, 33, 107, 18*, -3, i, 1
- O=C(CN1C(=O)CSC1=O)c1ccccc1
→ ·, ·, 101, -0.6, -15, i, 0.98
- CCC(C)NC(=S)N1CCN(C)CC1 (centres undefined)
→ ·, ·, 104, ·, -9, i, 1.1
- Cc1nn(-c2ccccc2)c(N)c1N=Nc1ccccc1
→ ·, ·, 167, -0.3, -4, i, 0.9
- CC(C)[C@H](NC(=O)c1ccccc1)C(=O)OCC(=O)N1CCCCCC1
→ ·, ·, 108, -0.7, -9, i, 0.81
- O=C(CSc1nc2[nH]ncc2c(=O)[nH]1)Nc1ccccc1
→ ·, ·, 100, ·, -11, i, 0.97
- COc1ccc(Br)cc1C(=O)Nc1ccc(NC(=O)c2ccco2)cc1
→ 39, 71, 101, -2.5, -11, i, 0.83
- CCCCOc1ccc(Cc2cnc(N)nc2N)cc1
→ ·, ·, 100, ·, ·, i, 0.84
- CC(=O)c1sc(NC(=O)COc2ccc(Cl)cc2Cl)nc1C
→ -289, 57, 101, ·, -3, i, 1.1
- CN(C)S(=O)(=O)c1ccc(NS(=O)(=O)/C=C/c2ccccc2)cc1
→ ·, ·, 106, -0.2, 10, i, 0.89
- Cc1ccc(-n2nc(C(=O)O)cc2-c2ccc(Cl)cc2)cc1
→ ·, ·, 99, ·, 2, i, 1.1
- OC(CN1CCCCC1)CN(c1ccccc1)c1ccccc1 (centres undefined)
→ -12, 98, 100, -1.2, -9, i, 0.92
- COc1ccc(CCNC(=O)CCNS(=O)(=O)c2cccc3nsnc23)cc1OC
→ 0, 127, 96, -2.5, 0, i, 1
- Cc1cccc(NC(=O)CCNS(=O)(=O)c2cccc3nonc23)c1C
→ ·, ·, 101, ·, -1, i, 0.93
- Cc1cc(OCCCCCn2ccnc2)cc(C)c1Cl
→ ·, ·, 101, ·, -5, i, 0.96
- CCOc1ccccc1Nc1nnc(SCc2nnc(-c3cc(OC)c(OC)c(OC)c3)o2)s1
→ -20, 47, 104, -0.2, 8, i, 0.89
- COc1cccc2cc(-c3n[nH]c(=S)n3C)oc12
→ -100, 101, 95, ·, 1, ·, ·
- COc1ccc(C2CC(=O)C=C(NCCC(C)C)C2)cc1 (centres undefined)
→ 0, 106, 109, -0.6, -2, i, 0.9
- Cc1c(NC(=O)CSc2nncc3ccccc23)c(=O)n(-c2ccccc2)n1C
→ -2, 138, 74, -2.0, -7, i, 1
- O=C(O)CSc1nc(-c2ccccc2)cc(=O)[nH]1
→ -24, 95, 94, 0.2, 2, i, 0.96
- CCOC(=O)/C(=N\Nc1cc(C(F)(F)F)ccc1Cl)N(CC)CC
→ ·, ·, 49, -2.4, 2, i, 0.94
- COc1cc(S(=O)(=O)N(Cc2cccs2)C2CC2)ccc1-n1cnnn1
→ -231, 162, 104, -3.5, -12, i, 0.89
- N#Cc1c(NC(=O)c2ccc(N3CCOCC3)c([N+](=O)[O-])c2)sc2c1CCCC2
→ 34, 60, 106, -1.1, 7, i, 0.98
- O=C(NCc1ccco1)Nc1cccc([N+](=O)[O-])c1
→ ·, ·, 94, ·, ·, i, 0.8
- CCC(c1nnnn1CCc1ccccc1)N1CCN(C(=O)c2ccco2)CC1 (centres undefined)
→ -19, 84, 98, -0.9, -7, i, 0.84
- O=C(c1ccc(NC(=S)Nc2ccc(Cl)c(Cl)c2)cc1)N1CCCC1
→ ·, ·, 94, -0.1, -1, i, 0.98
- Cc1ccc(NC(=S)NCC2CCCO2)cc1 (centres undefined)
→ -3, 128, 96, -2.8, -4, i, 1.1
- CS(=O)(=O)N1CCN(C(=O)c2ccc(-c3ccccc3)cc2)CC1
→ -200, 50, 105, -2.5, -3, i, 1.1
- CCOC(=O)C/C(C)=N/NC(=O)C1CC1(c1ccccc1)c1ccccc1 (centres undefined)
→ 16, 116, 100, -0.7, -6, i, 1
- CNC(=S)Nc1ccc(OCc2ccccc2)cc1
→ ·, ·, 104, ·, 5, i, 1.1
